miR-21 FLuc – raises the signal of a miR-21 reporter; Potency, µM (titrated, usually from 38.3 µM), for the others: at the highest dose reporter change, positive = more light; 340,000 tested, under 10 active; HeLa miR-21 FLuc reporter, luciferase, 48 h; active = well fitted rising curve with a large enough effect; inconclusive = small, poorly fitted or top-dose-only effect; inactive = no such curve, though single readings can be large or run the other way;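 also: % of control where 0% means no effect; miR-21 action dims this reporter so a rising signal means less miR-21 action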
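HeLa cells stably expressing CMV-driven firefly luciferase with a downstream miR-21 binding sequence, endogenously expressing miR-21, were treated with titrations (up to about 40uM final) for 48 hours at 37 degree Celsius. Luciferase luminescence was read after lysis.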
Rango complex inh – Rango-importin beta binding inhibition; Q14974; Rango CFP/YFP FRET sensor + importin beta, 45 min; Potency, µM (top dose mostly 92.2 µM), for the others: at the top dose inhibition of complex formation; 340,000 compounds, 0.031% hits; AID 540263; active = rising FRET ratio curve, often small or poorly fitted; inconclusive = mostly compound fluorescence or quenching in the first reads; inactive = flat curves in all reads;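 also: potency is read from the fitted curve at half-maximal effect; 0% = DMSO wells and 100% = buffer wells lacking importin beta; nearly all actives have a fitted effect of over 15% in size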
Target sequence (Q14974 whole entry, looked up): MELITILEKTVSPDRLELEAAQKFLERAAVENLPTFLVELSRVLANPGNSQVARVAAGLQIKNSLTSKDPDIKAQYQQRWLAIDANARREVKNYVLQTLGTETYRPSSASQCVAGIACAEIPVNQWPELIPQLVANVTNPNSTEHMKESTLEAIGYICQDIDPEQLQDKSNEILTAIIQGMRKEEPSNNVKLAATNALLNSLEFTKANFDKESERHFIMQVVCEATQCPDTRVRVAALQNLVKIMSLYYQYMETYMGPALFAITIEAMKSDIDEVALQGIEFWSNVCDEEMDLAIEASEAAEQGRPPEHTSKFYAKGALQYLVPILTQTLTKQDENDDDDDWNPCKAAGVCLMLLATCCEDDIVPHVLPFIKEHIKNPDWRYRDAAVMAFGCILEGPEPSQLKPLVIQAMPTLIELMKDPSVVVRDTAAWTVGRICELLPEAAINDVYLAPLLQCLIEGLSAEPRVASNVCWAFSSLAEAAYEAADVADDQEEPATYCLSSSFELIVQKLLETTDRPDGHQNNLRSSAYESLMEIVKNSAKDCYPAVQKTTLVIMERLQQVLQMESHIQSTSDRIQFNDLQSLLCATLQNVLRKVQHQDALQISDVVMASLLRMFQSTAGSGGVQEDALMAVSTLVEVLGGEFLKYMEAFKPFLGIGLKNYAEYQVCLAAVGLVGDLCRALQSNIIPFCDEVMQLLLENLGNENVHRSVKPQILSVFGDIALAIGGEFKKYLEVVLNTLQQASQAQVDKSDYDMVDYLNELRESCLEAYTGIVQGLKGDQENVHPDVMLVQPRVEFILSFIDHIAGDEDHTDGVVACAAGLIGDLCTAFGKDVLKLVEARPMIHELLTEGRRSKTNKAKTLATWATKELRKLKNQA
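FRET biosensor (snurportin 1 IBB flanked by EYFP and cerulean), 50 nM, with compound 5 min, then 0.125 microM importin beta in PBS, 1 mM DTT, 0.02% Tween-20, 0.1% BSA. CFP/YFP ratio read after 45 min at room temperature; pre-read flags interference.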
Rango release inh – inhibition of RanGTP-driven Rango-importin beta dissociation; O95149+P62826; Biochemical FRET Rango-importin beta, RanGTP-induced dissociation; Potency, µM (doses to about 46.1 µM), for inactives: at the top dose activity change, negative = inhibition; 340,000 compounds, 0.071% hits; active means falling FRET ratio curve, often poorly fitted, with flat reads before Ran was added; inconclusive means other falling curves, or compound fluorescence or quenching; inactive means flat or rising ratio curve;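 also: potency is read from the fitted curve at half-maximal effect; % of control where 0% means no effect; nearly all actives have a fitted effect of over 45% in size; -100% = wells without RanGTP and RCC1; the record marks most hits as doubtful in a second field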
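Two FRET readings bracket the reaction: one 5 min after compound meets Rango–importin beta, another 45 min after RanGTP-RCC1 (0.6 uM Ran, 0.2 uM RCC1, 2 mM GTP) is added. Only the second defines inhibition.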
GLA inh pH 4.5 – inhibitors of human alpha-galactosidase A at pH 4.5; purified enzyme, 4-MU-alpha-Gal fluorescence, pH 4.5; activity change, negative = inhibition, % at 105 µM; 230,000 tested, under 10 active; inconclusive = small, poorly fitted or top-dose-only inhibition, or a rising curve; inactive = flat fitted curve, though single readings scatter; no compound was filed as active;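 also: 0% = full activity with enzyme and -100% = basal without enzyme; dose as in the result columns while the protocol names 77 µM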
An asterisk follows results filed as active; ? = inconclusive; / = not tested or not shown. Some of the compounds tested (hit frequency here may not be typical).

SMILES	miR-21 FLuc	Rango complex inh	Rango release inh	GLA inh pH 4.5
C#CCOCCOCCOCCNc1nc(N2CCN(C(=O)Cn3cc(CC(C)O)nn3)CC2)nc(N2CCN(C(=O)[C@H](CCCCN)n3cc(CC(C)O)nn3)CC2)n1 (stereo partly drawn)	/	0.1%	-5.9%	/
Cc1c2cnn(CC(=O)NCc3ccccn3)c(=O)c2c(C)n1Cc1ccc(Cl)cc1	-1.0%	-1.9%	?	/
O=S1(=O)CCN2N=C(C34CC5CC(CC(C5)C3)C4)SC2=N1	-14.1%	1.4%	4.1%	4.3
O=C(Nc1nccs1)c1cc(S(=O)(=O)N2CCOCC2)c(Cl)cc1Cl	0.4%	-1.3%	0.1%	4.6
Nc1nc(-c2ccc(Br)cc2)c(S(=O)(=O)c2ccccc2)s1	-4.0%	3.9%	-21.7%	?
COC(=O)/C=c1/s/c(=C(\C#N)C(=O)NCc2ccco2)n(-c2ccc(C)cc2)c1=O	0.4%	-2.0%	-19.4%	-0.1
O=C(NCC1CCCO1)c1cc(-c2ccccc2F)no1 (stereo not drawn)	-78.7%	-1.2%	7.0%	/
CC(=O)NCc1c(Cl)cccc1-n1cccc1	-1.6%	1.6%	-15.2%	1.7
COc1ccc(CNC(=O)c2noc(C(C)C)c2[N+](=O)[O-])cc1	-7.3%	4.2%	21.6%	6.3
O=C(Nc1ccc(F)cc1)Nc1cc(S(=O)(=O)N2CCOCC2)ccc1N1CCCC1	0.4%	1.2%	20.1%	6.2
O=C(OCc1ccccc1)N1CCC2CC1c1c(-c3ccc(C(F)(F)F)cc3)cccc12 (stereo not drawn)	/	1.5%	-20.1%	/
COc1ccc(C(c2nnnn2C(C)(C)C)N2CCN(C(=O)c3ccco3)CC2)cc1 (stereo not drawn)	0.9%	5.6%	19.2%	/
COc1cc(CNCCN2CCOCC2)ccc1OCc1ccc(Cl)cc1Cl	19.1%	5.2%	-0.9%	-13.0
COc1ccc(C(=O)COC(=O)C(CCCCN2C(=O)C3C4C=CC(C4)C3C2=O)N2C(=O)C3C4C=CC(C4)C3C2=O)cc1 (stereo not drawn)	-2.5%	-0.8%	-3.6%	-1.4
COc1cc(-c2cc(C(=O)Nc3nc4ccccc4s3)c3ccccc3n2)cc(OC)c1OC	-24.0%	-0.3%	16.4%	-3.2
CN1OCC(S(=O)(=O)c2ccccc2)C1c1ccccc1 (stereo not drawn)	0.4%	0.4%	-8.4%	-0.3
Cc1ccccc1-c1nnn(CC(=O)N2CCN(C(=O)c3ccco3)CC2)n1	/	-4.1%	-9.9%	/
C(=Nc1ccccc1)c1ccc[nH]1	/	5.8%	5.6%	/
Cc1c(C(=O)NCc2ccccc2F)oc2ccccc12	-4.9%	-3.0%	7.8%	/
COc1ccc(NC(=O)CCNS(=O)(=O)c2ccc3[nH]c(=O)oc3c2)cc1Cl	2.4%	-0.4%	2.8%	/
Cc1cccn2c(=O)c(/C=C(\C#N)C(=O)NCc3ccco3)c(N3CCCC(C)C3)nc12 (stereo not drawn)	-1.9%	?	-9.5%	-4.4
CCCCn1c(N)c(N(CC(C)C)C(=O)C2CC(=O)N(Cc3ccco3)C2)c(=O)[nH]c1=O (stereo not drawn)	2.0%	-0.1%	0.3%	/
Cc1cc(C)c(C)c(S(=O)(=O)NCC(=O)N2CCCC2)c1C	-5.4%	4.4%	-13.3%	-7.5
Cc1sc(NC(=O)c2ccccc2)c(C(=O)c2ccccc2)c1C	-14.8%	0.1%	-5.2%	?

Only Rango complex inh and Rango release inh (3 entries from above):
molecule	Rango complex inh	Rango release inh
COc1ccc(NC(=O)CCNS(=O)(=O)c2ccc3[nH]c(=O)oc3c2)cc1Cl	-0.4%	2.8%
Cc1cccn2c(=O)c(/C=C(\C#N)C(=O)NCc3ccco3)c(N3CCCC(C)C3)nc12 (stereo not drawn)	?	-9.5%
CCCCn1c(N)c(N(CC(C)C)C(=O)C2CC(=O)N(Cc3ccco3)C2)c(=O)[nH]c1=O (stereo not drawn)	-0.1%	0.3%

(next part)
SMILES	miR-21 FLuc	Rango complex inh	Rango release inh	GLA inh pH 4.5
CCN(CC)S(=O)(=O)c1cc(NC(=O)CN2C(=O)NC3(CCCc4ccccc43)C2=O)ccc1C (stereo not drawn)	11.1%	1.6%	-7.3%	-6.5
O=C(CN1C(=O)S/C(=C\c2ccccc2F)C1=O)NC1CCS(=O)(=O)C1 (stereo not drawn)	0.4%	-0.5%	7.0%	/
CSc1ccccc1C(=O)NCCS(=O)(=O)N1CCN(c2ccc(F)cc2)CC1	/	0.1%	-4.6%	/
CCc1noc(C)c1C(=O)Nc1ccc(S(=O)(=O)N2CCCC(C)C2)cc1 (stereo not drawn)	/	-1.0%	-0.2%	/
CC12CCC(=O)N1C(C(=O)OCc1c(Cl)cccc1Cl)CS2 (stereo not drawn)	-0.1%	-2.2%	6.3%	/
CN(Cc1ccccc1)C(=O)c1nc2ccccn2c1CNCCn1cccn1	-2.2%	0.0%	-6.8%	3.5
CC(=O)c1ccc2c(c1)C1C=CCC1C(c1ccncc1)N2 (stereo not drawn)	-32.6%	9.8%	-8.7%	0.4
Cc1cc(C=O)c(O)cc1O	-1.7%	-0.4%	-12.1%	/
Cc1ccc(C(=O)Nc2ccc(C(=O)/C=C/c3cccs3)cc2)cc1	-48.8%	1.2%	3.8%	-22.0
CCOC(=O)N1CCC(NC(=O)CC2C(=O)NCCN2Cc2ccccc2)CC1 (stereo not drawn)	2.0%	-4.5%	-12.9%	/
CCOC(=O)Cn1cc(/C=N/N2C(=O)C3C4C=CC(C4)C3C2=O)c2ccccc21 (stereo not drawn)	-1.4%	1.6%	2.1%	3.7
O=C(CNC(=O)c1cccs1)OCc1ccc(Br)cc1	0.3%	2.3%	1.3%	/

Five records drawn at random from those above, as already listed:
SMILES	miR-21 FLuc	Rango complex inh	Rango release inh	GLA inh pH 4.5
CN(Cc1ccccc1)C(=O)c1nc2ccccn2c1CNCCn1cccn1	-2.2%	0.0%	-6.8%	3.5
Cc1ccc(C(=O)Nc2ccc(C(=O)/C=C/c3cccs3)cc2)cc1	-48.8%	1.2%	3.8%	-22.0
CCOC(=O)N1CCC(NC(=O)CC2C(=O)NCCN2Cc2ccccc2)CC1 (stereo not drawn)	2.0%	-4.5%	-12.9%	/
O=C(CNC(=O)c1cccs1)OCc1ccc(Br)cc1	0.3%	2.3%	1.3%	/
Cc1cc(C=O)c(O)cc1O	-1.7%	-0.4%	-12.1%	/

(further entries)
SMILES	miR-21 FLuc	Rango complex inh	Rango release inh	GLA inh pH 4.5
Nc1ccc2c(c1)C(=O)N(CCCC(=O)O)C2=O	6.0%	?	3.0%	-14.8
CCOc1cc(C)c(C(C)C)cc1S(=O)(=O)N1CCOCC1	-8.3%	3.9%	11.8%	-2.4
O=C(NCc1ccccc1)C(c1ccc(F)cc1)N(C(=O)c1csnn1)c1ccccc1 (stereo not drawn)	2.7%	0.5%	2.4%	/
Cc1c(C(=O)NC(C)C)c(-c2ccccc2)nn1-c1ccccc1	-10.6%	5.7%	0.6%	2.3
CN(C)CCNC(=O)c1ccc2c(c1)N(Cc1ccc(F)cc1)CCS2	-13.1%	0.0%	-15.3%	16.2
COc1ccc(NC(=S)NNC(=O)c2nnn(-c3ccccc3)c2C)cc1	-31.3%	-2.7%	-5.6%	1.3
CN1CCN(CCCNC(=O)C2CCN(c3nnc(-n4cccc4)s3)CC2)CC1	0.3%	2.5%	6.9%	0.5
Cc1ccccc1C(=O)Nc1ccnn1C1CCN(Cc2cnn(C(C)C)c2)CC1	-4.4%	-0.9%	20.1%	/
CC1=C(C#N)C(=O)NC(=O)/C1=C/c1ccc(-c2ccc(S(N)(=O)=O)cc2)o1	8.5%	?	-15.0%	-0.5
C1=C(c2cc3ccccc3cn2)CCCC1	/	11.1%	-1.0%	/
COc1ccc2cc3cc(C(=O)Nc4ccc5c(c4)OCCO5)oc3nc2c1	-17.2%	?	-13.2%	-0.6
CCN(CC)CCCNC(=O)c1ccc2c(SCC(=O)O)c3c(nc2c1)CCC3	-4.0%	/	/	0.0
CC1(C)CC(=O)C2=C(C1)N1C(=C(C#N)C2c2ccccc2Cl)N=C(N)c2ccccc21 (stereo not drawn)	5.3%	?	?	-18.6
CC(C)c1nnc(NC(=O)CCC(=O)NCc2ccc(F)cc2)s1	-2.4%	0.8%	10.9%	/
N#Cc1c(N)nc2c(c1-c1ccccc1)CCC2	-39.8%	?	?	15.5
O=C(Nc1ccc(-c2cc3ccccc3oc2=O)c(Cl)c1)c1cccnc1	0.0%	?	-5.9%	-6.2
O=C(COC(=O)c1cccc2ccccc12)NCC1CCCO1 (stereo not drawn)	-5.7%	2.3%	0.0%	1.1
O=C(C[C@H]1C[C@H](C(=O)N2CCCCC2)[C@@]2(CCc3ccccc3)c3[nH]c4cc(-c5ccco5)ccc4c3CCN2C1=O)NCc1ccco1	/	0.5%	-9.8%	/
O=C(O)C1C2C=CC(C2)C1C(=O)OC1CC2CCC1C2 (stereo not drawn)	2.6%	1.6%	6.6%	1.8
COC(=O)CSc1nc2ncc(Cl)cc2[nH]1	0.4%	0.9%	7.0%	3.6
Cc1cccc(Nc2nnc(SCc3cc(=O)n4cc(C)ccc4n3)s2)c1	-3.5%	0.2%	8.7%	0.5
Cc1ccc(NCN2C(=O)C3CC=C(Cl)CC3C2=O)cc1 (stereo not drawn)	1.3%	-5.7%	-5.9%	5.2
COc1cc(OC)c(C=CC(=O)c2ccccc2O)c(OC)c1	/	6.5%	?	/
CN(C)C(=O)c1cc(C(=O)c2ccc(F)cc2Cl)c[nH]1	-48.1%	2.8%	-13.7%	/
CC(=O)C12C3C4C(C5C1C3C5(Br)C41OCCO1)C21OCCO1 (stereo not drawn)	-1.9%	-1.3%	0.4%	/
CC(NC(=O)C(=O)N1CCCCC1)C(c1cccs1)N1CCN(c2ccc(F)cc2)CC1 (stereo not drawn)	3.5%	-2.1%	0.0%	/
Cc1ccc([N+](=O)[O-])cc1NCC(=O)NN	-11.2%	0.8%	11.4%	-6.0
O=C(NCc1cccnc1)C1CCN(S(=O)(=O)c2cccc(C(F)(F)F)c2)CC1	/	3.5%	-0.5%	/
O=C(COC(=O)c1cc(Cl)nc(Cl)c1)NCc1ccc2c(c1)OCO2	/	-0.5%	-8.8%	/
COc1ccc(CCNC(=O)c2ccc3c(c2)NC(=O)C(C(C)C)N3)cc1OC (stereo not drawn)	2.5%	5.3%	-26.3%	/
N/N=C/C(=N\Nc1ccc(Cl)cc1)C(=O)c1ccncc1	-14.3%	3.3%	40.6%	-0.8
CC(=O)NC(CCS(C)(=O)=O)C(=O)Nc1ccc(C)c(F)c1 (stereo not drawn)	-6.8%	-1.8%	5.8%	-19.4
O=C(COc1ccc(Cl)cc1)NN=C1CCCCCCC1	0.8%	4.1%	-6.2%	/
CC(C)NC(=O)CSc1ccccc1C(=O)N1CCN(S(=O)(=O)/C=C/c2ccccc2)CC1	/	2.6%	17.8%	/
CCc1ccc(N2CSC3=C(C#N)C(c4cccs4)CC(=O)N3C2)cc1 (stereo not drawn)	-24.8%	?	?	-5.7
CCCN(CC(=O)Nc1ccccc1OC)C(=O)CSc1ccc(Br)cc1C	/	1.5%	0.4%	/
CCCC(C(=O)NC1CCCC1)N(Cc1ccc(OC)cc1)C(=O)c1snc(C(N)=O)c1N (stereo not drawn)	5.1%	2.4%	-11.9%	/
CCOC(=O)c1cnc(COc2ccccc2Cl)[nH]c1=O	-5.8%	-0.6%	1.2%	3.2
CC[C@]12c3[nH]c4cc(CCC(=O)N(C)C)ccc4c3CCN1C(=O)[C@@H](CC(=O)NCCC1=CCCCC1)C[C@@H]2C(=O)N1CCN(C(=O)C2CC2)CC1	/	-1.3%	-3.8%	/
CCCC[C@@H]1CNC(=O)C(=O)N1CC(C)(C)C	-0.7%	4.4%	9.3%	6.1
CC1CC(C)CN(CCC(=O)Nc2cccc(Cl)c2)C1 (stereo not drawn)	-4.3%	-2.8%	-21.1%	-11.0
CN(C)S(=O)(=O)c1cc(NC(=O)COC(=O)Cc2cccc3ccccc23)ccc1Cl	-3.3%	-2.9%	0.0%	-13.8
CCOc1ccc(S(=O)(=O)N2CCOCC2)cc1NC(=O)CSCC(=O)Nc1ccc(C)cc1	-4.9%	1.2%	-6.2%	/
C#Cc1ccc(C(=O)Nc2ccc(N3CCC(C)CC3)c(C(N)=O)c2)cc1	-8.1%	-2.7%	-7.8%	-4.4
